Source: PubChem BioAssay (Broad Institute)
Vaccinia stage: Vaccinia orthopox stage-specific inhibition | 0.01% of 89,000 active | Vaccinia-infected cells, mCherry/Venus stage reporter fluorescence; active compounds read low; some inactives read as strong as hits | activity change (mCherry), % (concentration not given with the values);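 active = mCherry past -33% and 40 or more points under the early reporter, replicates agreeing; inconclusive = past -33% without that gap or agreement; tested in A549 cells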;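 note: scaled between vehicle wells and reference inhibitor wells; 23 nL library stock went into each well; one replicate is shown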
Vaccinia stage Venus: second read-out of Vaccinia stage, no call of its own (marks repeat the call); activity change (Venus), %; measured here: Venus reporter, other viral stage;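 negative = less Venus signal; first of two replicates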
Starred values were filed as active, the others as inactive; ? = inconclusive; . = no result given.

Every second line gives: Vaccinia stage Venus | Vaccinia stage
1) C[C@@H]1CN([C@@H](C)CO)C(=O)c2cccc(NC(=O)C3CCOCC3)c2O[C@H]1CN(C)S(C)(=O)=O
    15 | 17
2) O=C(C[C@@H]1C=C[C@@H](NC(=O)NC2CCCCC2)[C@@H](CO)O1)NCc1ccc(F)cc1
    8 | -10
3) C[C@@H]1CCCCO[C@@H](CN(C)S(=O)(=O)c2cccs2)[C@H](C)CN([C@H](C)CO)C(=O)c2cc(NS(C)(=O)=O)ccc2O1
    -16 | -23
4) CCC(=O)N(C)C[C@@H]1Oc2cc(C#CC3CCCC3)ccc2S(=O)(=O)N([C@H](C)CO)C[C@@H]1C
    -13 | -11
5) C[C@H]1CN([C@@H](C)CO)C(=O)c2cccc(NC(=O)c3cnccn3)c2O[C@H]1CN(C)S(=O)(=O)c1ccc(F)cc1
    0 | -1
6) C[C@@H]1CN([C@@H](C)CO)C(=O)c2cc(-c3ccccc3)cnc2O[C@H]1CN(C)C(=O)c1cccnc1
    3 | 6
7) C[C@@H]1CN([C@@H](C)CO)C(=O)Cc2cc(NC(=O)CCC(F)(F)F)ccc2O[C@@H]1CN(C)C(=O)Nc1ccccc1
    8 | 11
8) O=C(C[C@H]1CC[C@H]2[C@@H](COC[C@@H](O)CN2C(=O)c2ccccc2F)O1)N1CCOCC1
    10 | 11
9) C[C@@H]1CN([C@H](C)CO)C(=O)c2cccc(NS(=O)(=O)c3cn(C)cn3)c2O[C@H]1CN(C)Cc1ccc(Cl)c(Cl)c1
    2 | -1
10) CC(C)NC(=O)Nc1ccc2c(c1)CC(=O)N([C@H](C)CO)C[C@H](C)[C@@H](CN(C)CC1CCCCC1)O2
    -16 | -19
11) O=C(CC1CC1)N[C@H]1CC[C@H](CCNS(=O)(=O)c2ccc(Cl)cc2)O[C@@H]1CO
    14 | 10
12) COc1ccc(S(=O)(=O)Nc2ccc3c(c2)CC(=O)N([C@H](C)CO)C[C@H](C)[C@@H](CN(C)C(=O)NC2CCCCC2)O3)cc1
    2 | -5
13) OC[C@@H]1[C@H](c2ccc(C#Cc3ccccc3)cc2)[C@@H]2CN(CC3CCOCC3)CCCCN12
    -13 | -12
14) C[C@H]1CN([C@@H](C)CO)C(=O)c2cc(C3=CCCC3)cnc2O[C@H]1CN(C)Cc1cccc(F)c1
    2 | -2
15) COc1ccc(S(=O)(=O)N(C)C[C@H]2Oc3c(NC(=O)Nc4ccc(F)cc4)cccc3C(=O)N([C@H](C)CO)C[C@@H]2C)cc1
    -4 | -13
16) C[C@H](O)C#Cc1ccc2c(c1)O[C@@H](CN(C)C(=O)CC1CC1)[C@@H](C)CN([C@@H](C)CO)S2(=O)=O
    10 | 6
17) C[C@H]1CN([C@@H](C)CO)C(=O)CCCn2cc(nn2)CO[C@H]1CN(C)S(=O)(=O)c1ccccc1
    -5 | -4
18) COc1ccccc1C(=O)Nc1ccc2c(c1)C(=O)N(C)[C@H]1CC[C@H](CC(=O)NCCc3ccncc3)O[C@H]1CO2
    13 | 14
19) COc1cccc(S(=O)(=O)Nc2ccc3c(c2)C(=O)N(C)[C@H]2CC[C@H](CC(=O)NCC4CCCCC4)O[C@@H]2CO3)c1
    -5 | 14
20) Cc1ccc(S(=O)(=O)N(C)C[C@H]2Oc3ccc(NS(C)(=O)=O)cc3C(=O)N([C@@H](C)CO)C[C@@H]2C)cc1
    2 | 4
21) Cc1noc(C)c1NC(=O)N(C)C[C@H]1Oc2ccc(NC(=O)Nc3cccc4ccccc34)cc2C(=O)N([C@H](C)CO)C[C@@H]1C
    -1 | -2
22) C[C@@H]1CN([C@H](C)CO)C(=O)c2cc(NC(=O)C3CCCCC3)ccc2O[C@@H]1CN(C)C(=O)Nc1ccc(C(F)(F)F)cc1
    -1 | -15
23) CC(C)OC(=O)N(C)C[C@@H]1OCc2ccccc2-c2c(n(C)c3ccccc23)C(=O)N([C@@H](C)CO)C[C@H]1C
    1 | -13
24) C[C@@H]1CN([C@@H](C)CO)C(=O)c2cc(NC(=O)Nc3ccc(F)cc3)ccc2O[C@H]1CN(C)Cc1ccc(Oc2ccccc2)cc1
    . | ?
25) CC(=O)N1C[C@@H]2[C@H](c3ccccc31)[C@H](CO)N2C(=O)Nc1ccc(F)cc1
    16 | 2
26) O=C(NCC[C@@H]1CC[C@@H](NC(=O)c2cnccn2)[C@H](CO)O1)Nc1ccc(Cl)cc1
    1 | 6
27) COC(=O)C[C@H]1CC[C@@H]2[C@@H](COc3ccc(NC(=O)Nc4cccc(Cl)c4)cc3C(=O)N2C)O1
    -14 | -25
28) CCC(=O)N(C)C[C@H]1Oc2cc(-c3ccccc3)ccc2S(=O)(=O)N([C@@H](C)CO)C[C@H]1C
    -14 | -9
29) C[C@H](CO)N1C[C@H](C)[C@H](CN(C)C(=O)Cc2ccccc2)OCCCC[C@H](C)Oc2ccc(N(C)C)cc2C1=O
    -5 | -18
30) Cc1cccc(S(=O)(=O)N2C[C@H]3[C@@H](c4ccccc42)[C@H](CO)N3Cc2ccccn2)c1
    -1 | -5
31) C[C@H]1CN([C@@H](C)CO)C(=O)c2cc(NC(=O)Cn3cnnn3)ccc2O[C@H]1CN(C)Cc1ccc(-c2ccccc2)cc1
    -7 | -8
32) C[C@@H]1CCCCO[C@@H](CN(C)Cc2ccc3c(c2)OCO3)[C@H](C)CN([C@H](C)CO)C(=O)c2cc(NS(=O)(=O)c3ccccc3)ccc2O1
    -23 | -31
33) CCCN(C)C[C@@H]1Oc2cc(C#Cc3cccc(F)c3)ccc2S(=O)(=O)N([C@@H](C)CO)C[C@@H]1C
    -21 | -27
34) C[C@@H]1CN([C@H](C)CO)C(=O)c2cc(NC(=O)Nc3ccc(C(F)(F)F)cc3)ccc2O[C@@H]1CN(C)Cc1ccc(C(F)(F)F)cc1
    . | ?
35) CO[C@H]1CN(C)C(=O)c2cc(NC(=O)c3ccccc3)ccc2OC[C@@H](C)N(C(C)=O)C[C@@H]1C
    7 | 4
36) O=C(Cc1ccncc1)Nc1ccc2c(c1)[C@H]1C[C@@H](CC(=O)NC3CCCCC3)O[C@H](CO)[C@H]1O2
    4 | 5
37) O=C(C[C@H]1C=C[C@@H](NS(=O)(=O)c2cccc(F)c2)[C@H](CO)O1)N1CCCCC1
    7 | 8
38) C/C=C/c1cnc2c(c1)C(=O)N([C@@H](C)CO)C[C@@H](C)[C@@H](CN(C)C(=O)Nc1ccc(OC)cc1)O2
    9 | 12
39) C[C@H](CO)N1C[C@H](C)[C@@H](CN(C)C(=O)Cc2ccccn2)Oc2cc(C#C[C@@H](C)O)ccc2S1(=O)=O
    9 | 19
40) C[C@H](CO)N1C[C@H](C)[C@@H](CN(C)S(=O)(=O)c2ccccc2F)Oc2ncc(C#Cc3ccccc3F)cc2C1=O
    . | ?
41) C/C=C/c1ccc([C@H]2[C@H](CO)N3C(=O)CN(Cc4ccc(C)cc4)C[C@@H]23)cc1
    -11 | -21
42) CCO[C@@H]1OC(C(=O)N2CCCCCCC2)=C[C@H](C2CC2)[C@H]1CCCO
    5 | 4
43) CCCNC(=O)N(C)C[C@H]1Oc2ncc(C#C[C@H](C)O)cc2C(=O)N([C@@H](C)CO)C[C@@H]1C
    8 | 7
44) C[C@@H]1CN([C@@H](C)CO)C(=O)Cc2cc(NC(=O)C3CCCCC3)ccc2O[C@H]1CN(C)S(=O)(=O)c1cn(C)cn1
    -1 | 10
45) CO[C@H](CN(C)S(=O)(=O)c1ccc(C)cc1)[C@H](C)CN([C@H](C)CO)S(=O)(=O)c1cccc(Cl)c1
    -9 | -12
46) COc1ccccc1C#Cc1ccc([C@H]2[C@@H](C#N)N(C(=O)C3CC3)[C@H]2CO)cc1
    -9 | -10
47) Cc1noc(C)c1S(=O)(=O)N(C)C[C@H]1Oc2ccc(NC(=O)C3CCCCC3)cc2CC(=O)N([C@@H](C)CO)C[C@H]1C
    -1 | 1
48) COc1ccc(NC(=O)Nc2cccc3c2O[C@H](CN(C)S(=O)(=O)c2ccc(OC)cc2)[C@H](C)CN([C@H](C)CO)C3=O)cc1
    7 | 11
49) CN1C(=O)c2cc(NC(=O)c3cnccn3)ccc2OC[C@H]2O[C@H](CC(=O)N[C@H]3CCN(Cc4ccccc4)C3)CC[C@@H]21
    11 | -4
50) CCC(=O)Nc1ccc2c(c1)C(=O)N(C)[C@H]1CC[C@H](CC(=O)NC3Cc4ccccc4C3)O[C@@H]1CO2
    7 | -3

Remaining list, next part
Every second line gives: Vaccinia stage Venus | Vaccinia stage
51) CC(=O)N(C)C[C@H]1[C@H](c2ccc(-c3ccccc3F)cc2)[C@H](CO)N1C(C)=O
    2 | -8
52) COc1ccc(NC(=O)Nc2ccc3c(c2)C(=O)N([C@H](C)CO)C[C@@H](C)[C@H](CN(C)S(=O)(=O)c2ccc(C)cc2)OCCCC[C@H](C)O3)cc1
    1 | 1
53) C/C=C/c1ccc([C@H]2[C@H](CO)N3C(=O)CN(S(=O)(=O)c4ccccc4)C[C@@H]23)cc1
    2 | -2
54) CCCC(=O)Nc1ccc2c(c1)OC[C@@H](C)N(Cc1ccccc1C(=O)O)C[C@@H](C)[C@H](OC)CN(C)C2=O
    15 | 11
55) C[C@@H]1CCCCO[C@H](CN(C)C(=O)Nc2ccc(C(F)(F)F)cc2)[C@H](C)CN([C@@H](C)CO)C(=O)c2cc(NS(=O)(=O)c3cccs3)ccc2O1
    -19 | -29
56) C[C@H]1CN([C@@H](C)CO)C(=O)c2cc(NC(=O)Nc3ccc4c(c3)OCO4)ccc2O[C@@H]1CN(C)Cc1ccc(Cl)c(Cl)c1
    -9 | -9
57) C[C@@H]1CN([C@@H](C)CO)C(=O)c2cc(-c3ccc(C(=O)N(C)C)cc3)cnc2O[C@@H]1CN(C)C(=O)c1ccncc1
    11 | 18
58) C[C@@H]1CCCCO[C@H](CN(C)C(=O)CCCN(C)C)[C@H](C)CN([C@@H](C)CO)C(=O)c2cc(NS(=O)(=O)c3ccc(Cl)cc3)ccc2O1
    13 | 15
59) CN(C)CCCNC(=O)C[C@H]1CC[C@H](NC(=O)Cc2cccnc2)[C@@H](CO)O1
    0 | -3
60) CO[C@H]1CN(C)C(=O)c2cc(NC(=O)C3CCC3)ccc2OC[C@H](C)N(Cc2ccncc2)C[C@@H]1C
    -12 | 0

Structural class, the entries above containing a thiophene ring, fused or not.
Every second line gives: Vaccinia stage Venus | Vaccinia stage
3) C[C@@H]1CCCCO[C@@H](CN(C)S(=O)(=O)c2cccs2)[C@H](C)CN([C@H](C)CO)C(=O)c2cc(NS(C)(=O)=O)ccc2O1
    -16 | -23
55) C[C@@H]1CCCCO[C@H](CN(C)C(=O)Nc2ccc(C(F)(F)F)cc2)[C@H](C)CN([C@@H](C)CO)C(=O)c2cc(NS(=O)(=O)c3cccs3)ccc2O1
    -19 | -29

Additional entries follow:
Every second line gives: Vaccinia stage Venus | Vaccinia stage
61) CCCC#Cc1ccc([C@H]2[C@@H](CO)N3C(=O)CN(C(=O)c4ccc(F)cc4)C[C@@H]23)cc1
    -9 | -1
62) CN(C)C(=O)C[C@H]1CC[C@@H]2[C@@H](COc3ccc(NC(=O)C4CCCCC4)cc3C(=O)N2C)O1
    10 | 7
63) CN1C[C@@H]2[C@H](c3ccccc31)[C@@H](CO)N2C(=O)Nc1cccc(F)c1
    -6 | 1
64) O=C(C[C@H]1C=C[C@H](NC(=O)CCN2CCCCC2)[C@H](CO)O1)NCc1ccc(Cl)c(Cl)c1
    -5 | -14
65) CO[C@H]1CN(C)C(=O)c2cc(NS(C)(=O)=O)ccc2OC[C@@H](C)N(C(=O)C2CCCC2)C[C@H]1C
    -1 | -2
66) O=C([C@@H]1[C@@H](CO)[C@@H]2Cn3c(ccc(C4=CCCC4)c3=O)[C@H]1N2Cc1nccs1)N1CCCCC1
    -2 | 11
67) O=C(NC1CCCCC1)N[C@@H]1CC[C@@H](CC(=O)N2CCOCC2)O[C@@H]1CO
    10 | 8
68) COc1cccc(-c2cn(CC[C@H]3CC[C@H](NC(C)=O)[C@@H](CO)O3)nn2)c1
    6 | 4
69) COc1ccccc1CNC(=O)C[C@H]1C[C@@H]2c3cc(NC(=O)c4ccc5c(c4)OCO5)ccc3O[C@@H]2[C@@H](CO)O1
    . | ?
70) C[C@H](CO)N1C[C@H](C)[C@H](CN(C)C(=O)Nc2ccc(F)cc2)Oc2ccc(NC(=O)C3CCCCC3)cc2CC1=O
    15 | 15
71) O=C(Nc1cccc(Cl)c1)N[C@H]1CC[C@H](CCNC(=O)C2CCCC2)O[C@@H]1CO
    -4 | -9
72) COc1cccc(CNC(=O)C[C@@H]2CC[C@H](NC(=O)C3CCC3)[C@H](CO)O2)c1
    3 | 10
73) COc1ccccc1C#Cc1cnc2c(c1)C(=O)N([C@H](C)CO)C[C@@H](C)[C@@H](CN(C)C)O2
    -17 | -17
74) COCC#Cc1ccc2c(c1)O[C@H](CN(C)C(=O)c1ccccc1)[C@@H](C)CN([C@@H](C)CO)S2(=O)=O
    -12 | -7
75) COC(=O)[C@@H]1[C@@H](CO)[C@@H]2Cn3c(ccc(-c4ccccc4F)c3=O)[C@H]1N2Cc1ccccc1
    12 | 6
76) O=C(NCC[C@@H]1CC[C@H](NS(=O)(=O)c2ccccc2)[C@H](CO)O1)c1cc(Cl)cc(Cl)c1
    -12 | -24
77) O=C(C1CCCC1)N1CC2(C1)[C@@H](c1ccccc1)[C@H](CO)N2Cc1ccccc1F
    10 | 1

In another format: three of the compounds above
26	O=C(NCC[C@@H]1CC[C@@H](NC(=O)c2cnccn2)[C@H](CO)O1)Nc1ccc(Cl)cc1
  Vaccinia stage Venus: 1
  Vaccinia stage: 6

27	COC(=O)C[C@H]1CC[C@@H]2[C@@H](COc3ccc(NC(=O)Nc4cccc(Cl)c4)cc3C(=O)N2C)O1
  Vaccinia stage Venus: -14
  Vaccinia stage: -25

28	CCC(=O)N(C)C[C@H]1Oc2cc(-c3ccccc3)ccc2S(=O)(=O)N([C@@H](C)CO)C[C@H]1C
  Vaccinia stage Venus: -14
  Vaccinia stage: -9

The list is partial; rates above refer to the full screens.
